High-throughput results: PubChem, National Center for Advancing Translational Sciences (NCATS)
gsp ag: agonists of gsp mutant (McCune-Albright syndrome); gsp mutant cells, cAMP HTRF, 30 min; control for the full effect not named in the record; Potency, µM (doses to about 76.9 µM), for inactives: top-dose activation (cAMP increase), actives largely listed as activators; 340,000 tested, 0.13% active; AID 624287; active = well fitted activation curve with a large enough effect; inconclusive = small, poorly fitted or top-dose-only effect, or another doubt; inactive = no such curve, though single readings can be large or run the other way; cell line not stated here;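 also: phosphodiesterase inhibitor Ro 20-1724 added with compounds to block cAMP breakdown; potency is read from the fitted curve at half-maximal effect; nearly all actives have a fitted effect of over 60% in size; about a fifth of the inactives were tested at one dose only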
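Cells stably selected in G418 were plated at 2000/well, grown 16-24 hr, then given compounds in DMSO with the PDE inhibitor […] (300 uM solution added) for 30 min at 37C; cAMP was read by HTRF.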
TRPV1 PAM: potentiators of human vanilloid receptor 1 (TRPV1) | 320,000 tested, 0.02% active | TRPV1-expressing cells, Fluo-8 calcium influx, capsaicin EC20 potentiation; host cell line not named in the record; control for the full effect not named in the record | potentiation, % at 8.33 µM; active means potentiation above 80%; inconclusive means 30% to 80%; inactive means below 30%; also: 0% is about no effect
Target sequence (Q8NER1 whole entry, looked up): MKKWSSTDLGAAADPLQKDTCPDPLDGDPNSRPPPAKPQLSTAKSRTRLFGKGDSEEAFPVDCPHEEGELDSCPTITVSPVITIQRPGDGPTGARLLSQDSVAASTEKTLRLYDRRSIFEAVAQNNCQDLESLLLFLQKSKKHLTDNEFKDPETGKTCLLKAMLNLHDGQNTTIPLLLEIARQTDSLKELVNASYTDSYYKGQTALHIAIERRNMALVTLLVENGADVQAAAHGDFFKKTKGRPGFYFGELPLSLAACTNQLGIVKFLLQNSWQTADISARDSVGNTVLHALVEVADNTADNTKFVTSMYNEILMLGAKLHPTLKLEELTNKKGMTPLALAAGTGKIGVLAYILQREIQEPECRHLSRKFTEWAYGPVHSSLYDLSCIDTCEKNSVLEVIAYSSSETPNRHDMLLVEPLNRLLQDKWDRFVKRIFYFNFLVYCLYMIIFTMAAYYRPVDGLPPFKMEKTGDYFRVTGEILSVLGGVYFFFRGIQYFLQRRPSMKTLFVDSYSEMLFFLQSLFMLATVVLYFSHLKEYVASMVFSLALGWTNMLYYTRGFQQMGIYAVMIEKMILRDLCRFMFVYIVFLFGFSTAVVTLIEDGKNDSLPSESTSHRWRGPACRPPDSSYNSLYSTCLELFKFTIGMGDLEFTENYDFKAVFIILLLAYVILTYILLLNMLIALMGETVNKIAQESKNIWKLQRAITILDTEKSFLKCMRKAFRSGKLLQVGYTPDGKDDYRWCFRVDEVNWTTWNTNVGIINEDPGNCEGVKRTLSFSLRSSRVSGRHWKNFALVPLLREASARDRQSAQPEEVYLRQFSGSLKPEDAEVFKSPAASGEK
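TRPV1-expressing cells were cultured overnight at 35.5C and loaded with Fluo-8 calcium dye for 40 to 90 min at room temperature. After a 10 s baseline, compound was added and calcium influx was read kinetically for 3 min (ex 480/em 520 nm).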
CtBP-E1A inh: CtBP/E1A binding inhibition. activity change, % (concentration not given with the values). AlphaScreen GST-E1A/His-CtBP binding, 1536-well; stronger effect = lower value; control for the full effect not named in the record. 340,000 tested, 0.49% active; in the data active means activity change below about -65%; inconclusive means about -30% to -65%; inactive means above about -30%; also: % is scaled to controls: 0 for no effect and ±100 for the full control effect
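Protein mix (5X: 125 nM each GST-E1A, His-CtBP) was incubated with pinned compound 2 h at 37 deg C in dark, in 50 mM Tris pH 8.0 buffer with 300 mM NaCl. Glutathione donor and nickel acceptor beads followed; AlphaScreen signal read after 1 h.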
Sfp inh: Sfp phosphopantetheinyl transferase inhibition; 310,000 tested, 3.5% active; Potency, µM, inactives show max response, negative = inhibition, hits mostly inhibitors; AID 1490; Q9F4F7; Biochemical Sfp PPTase activity, qHTS; active = well fitted inhibition curve with a large enough effect; inconclusive = small, poorly fitted or top-dose-only effect, or another doubt; inactive = no such curve, though single readings can be large or run the other way;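 also: the enzyme is Sfp with the accession as filed and its product quenches rhodamine fluorescence; potency is read from the fitted curve at half-maximal effect; 0% = enzyme reaction without inhibitor and -100% = no enzyme wells; top concentration of the series not given in the record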
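After 15 min at room temperature with compound, 15 nM Sfp received 5 uM rhodamine-CoA plus 12.5 uM BHQ-2-ybbR (50 mM Hepes pH 7.6, 10 mM MgCl2). Rate came from the fluorescence difference over 30 min, ex 525/em 598 nm.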
ClpP mod: qHTS Assay for Activators of ClpP | purified B. subtilis ClpP, FRET peptide cleavage, 20 min | Potency, µM (doses to about 57.5 µM), without a hit: top-dose activity change, negative = active | 340,000 tested, 1.9% active | ATP-dependent Clp protease proteolytic subunit (Bacillus subtilis (strain 168)), P80244; active = well fitted falling curve with a large enough effect; inconclusive = small, poorly fitted or top-dose-only effect; inactive = no such curve, though single readings can be large or run the other way; also: potency is read from the fitted curve at half-maximal effect; the source files actives as falling curves though it sought activators and does not explain the sign; nearly all actives have a fitted effect of over 65% in size; many hits overshoot -100%
Target sequence (P80244 whole entry, looked up): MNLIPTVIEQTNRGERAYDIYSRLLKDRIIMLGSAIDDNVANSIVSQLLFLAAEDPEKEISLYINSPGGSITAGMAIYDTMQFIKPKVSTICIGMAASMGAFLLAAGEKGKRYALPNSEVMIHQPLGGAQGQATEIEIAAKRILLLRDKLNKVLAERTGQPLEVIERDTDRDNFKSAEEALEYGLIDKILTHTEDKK
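FRET quenching reversal measured ClpP activation: 10 microg/mL B. subtilis ClpP at pH 8 with the FRET-FV decapeptide, read at 430 nm after 320 nm excitation. The 20-min minus 0-min signal was scaled between DMSO/no-enzyme wells and ADEP (5.8 microM final).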
Menin-MLL FL inh: displaces fluorescein MLL peptide from human menin; 290,000 tested, under 10 active; AID 1766; Fluorescence polarization, fluorescein-MLL peptide displacement from menin; FP activity change, % at 61.4 µM; inconclusive = falling polarisation curve, or a change in total fluorescence; inactive = total fluorescence flat and polarisation flat or rising; no compound was filed as active; the % refers to the polarisation; negative = inhibition;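 also: % of control where 0% means no effect; inhibitors lower the polarisation; unlabelled MLL peptide was the positive control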
gsp antag: gsp mutant antagonism; gsp-mutant cells, cAMP HTRF, 30 min; control for the full effect not named in the record; Potency, µM (doses to about 76.9 µM), inactives show top-dose activity change, negative = inhibition, actives largely listed as inhibitors; 340,000 tested, 0.4% active; AID 624288; active = falling curve of any shape with a large fitted effect; inconclusive = falling curve, mostly with a smaller effect; inactive = flat or rising curve; cell line not stated here;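 also: intracellular cAMP measured with PDE inhibitor Ro 20-1724 present during compound exposure; potency is read from the fitted curve at half-maximal effect; % is scaled to controls: 0 for no effect and ±100 for the full control effect; nearly all actives have a fitted effect of over 65% in size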
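Cells in G418 medium, seeded 16-24 h, 37C; buffer exchange to DPBS + 1 mM CaCl2, 0.5 mM MgCl2, 0.05% BSA; cpds in DMSO + […] (300 uM stock), 30 min 37C; HTRF cAMP detection.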
Active calls of the source: *; & = joins results of further samples; [ ] = remark or other dose.

For CCOC(=O)CC1C(=O)NCCN1C(=O)Nc1ccccc1 (stereo not given) the results were gsp ag inconclusive, TRPV1 PAM -27.9, CtBP-E1A inh -0.4, Sfp inh 6.3%, ClpP mod -0.4%, Menin-MLL FL inh 6.4 and gsp antag -6.8%.
For Cc1c(NC(=O)CN2CC(C)OC(C)C2)c(=O)n(-c2ccccc2)n1C (stereo not given) the results were gsp ag 23.1%&26.4%, TRPV1 PAM -5.7, CtBP-E1A inh 4.5&10.3, Sfp inh inconclusive, ClpP mod -1.1%, Menin-MLL FL inh -1.6 and gsp antag 12.0%&4.0%.
CN(C(=O)CSc1nnnn1-c1ccccc1)C1CCCCC1 was read as gsp ag -21.6%, TRPV1 PAM -17.7, CtBP-E1A inh 6.1, Sfp inh 12.1%, ClpP mod 1.9%, Menin-MLL FL inh 1.5 and gsp antag -7.4%.
Screening CCOCCCNC(=O)C(c1ccc(Cl)cc1)N1CCN(C(=O)c2ccco2)CC1 (stereo not given) returned gsp ag -20.4%, TRPV1 PAM -8.3, CtBP-E1A inh 3.4, Sfp inh -7.4%, ClpP mod 0.8%, Menin-MLL FL inh 2.1 and gsp antag 4.4%.
Cc1ccccc1NC(=S)NNC(=O)c1cccc(Br)c1 was read as gsp ag 7.0%[15.4 µM], TRPV1 PAM 13.1, CtBP-E1A inh -1.7, Sfp inh 20.6%, ClpP mod inconclusive, Menin-MLL FL inh -4.2 and gsp antag -38.8%.
CCCC(=O)NC(=S)Nc1nc(-c2ccc(OC)cc2)cs1 was read as gsp ag 1.6%[15.4 µM], TRPV1 PAM 8.3, CtBP-E1A inh 13.8, Sfp inh 3.2%, ClpP mod -1.0%, Menin-MLL FL inh 6.1 and gsp antag -2.3%.
O=C(Nc1ccc(Oc2ccccc2)nc1)C1CCCCN1Cc1cccc(O)c1 (stereo not given) was read as gsp ag -37.3%[inhibitor], TRPV1 PAM 2.2, CtBP-E1A inh 4.4, Sfp inh 6.7%, ClpP mod -0.4% and gsp antag -14.8%.
For COC(=O)CSc1nnc2c3c4c(sc3nc(-n3nc(C)cc3C)n12)COC(C)(C)C4 the results were gsp ag 2.6%, TRPV1 PAM -6.0, CtBP-E1A inh -3.2, Sfp inh -3.0%, ClpP mod -15.2%, Menin-MLL FL inh 6.5 and gsp antag -7.3%.
O=C(CNC(=O)N1CC(=O)Nc2ccccc21)Nc1nccs1 was read as gsp ag -1.7%, TRPV1 PAM -34.5, CtBP-E1A inh 6.4, Sfp inh 14.0%, ClpP mod -0.1%, Menin-MLL FL inh -1.7 and gsp antag 16.4%.
`O=c1oc(C2(O)CCCCC2)cc2ccc(/C=C/c3ccc(F)cc3)cc12` gave TRPV1 PAM -3.6, CtBP-E1A inh 1.6, ClpP mod 3.9% and gsp antag -10.5%.
Screening COc1cccc(OC)c1OCCCSc1nc(C)cc(=O)[nH]1 returned gsp ag 28.6%, TRPV1 PAM 26.1, CtBP-E1A inh 1.3, Sfp inh -4.4%, ClpP mod 0.3%, Menin-MLL FL inh -4.6 and gsp antag -2.2%.
COc1ccc2c(c1)CCc1c-2nc2ccccc2c1N1CCOCC1 was read as gsp ag 7.5%[15.4 µM], TRPV1 PAM -0.9, CtBP-E1A inh -11.6, Sfp inh 13.2%, ClpP mod -0.8%, Menin-MLL FL inh 7.4 and gsp antag -12.8%.
`COc1cccc(NS(=O)(=O)c2c(C)cc(C)cc2C)c1` gave gsp ag -25.0%, TRPV1 PAM 6.6, CtBP-E1A inh -2.3, Sfp inh -25.0%, ClpP mod -1.3%, Menin-MLL FL inh 2.3 and gsp antag inconclusive.
`COc1ccc(NC(=O)CSc2nnnn2C)c([N+](=O)[O-])c1` gave gsp ag 12.1%[15.4 µM], TRPV1 PAM -5.6, Sfp inh 11.0%, Menin-MLL FL inh 3.2 and gsp antag -17.2%.
CN(C)c1cccc(C(=O)N/N=C/c2ccccc2F)c1 was read as gsp ag -18.3%[15.4 µM], TRPV1 PAM -20.2, CtBP-E1A inh 5.8, Sfp inh 4.9%, Menin-MLL FL inh -2.1 and gsp antag -19.5%.
`Cc1cc(NC(=O)CSc2nc3ccccc3[nH]2)n(-c2ccccc2)n1` gave gsp ag -14.1%, TRPV1 PAM -22.1, Sfp inh -1.9%, ClpP mod 0.1%, Menin-MLL FL inh -2.7 and gsp antag -5.0%.
For CC(=O)NCCc1nc2ccccc2n1Cc1ccc(Cl)cc1 the results were gsp ag -115.6%[inhibitor], TRPV1 PAM -15.6, Sfp inh 11.8%, ClpP mod -0.3%, Menin-MLL FL inh 2.2 and gsp antag 1.6%.
For O=C(Nc1ccccc1)C1CC(=O)n2c(nc3ccccc32)N1 (stereo not given) the results were gsp ag -3.1%[15.4 µM], TRPV1 PAM 7.2, CtBP-E1A inh -10.6, Sfp inh -20.2%, Menin-MLL FL inh 0.2 and gsp antag -5.6%.
For Cc1ccc(CNC(=O)/C(C#N)=C/c2ccc(C)s2)cc1 the results were gsp ag -48.7%[inhibitor], TRPV1 PAM 14.9, CtBP-E1A inh 6.0, Sfp inh 4.4%, ClpP mod 6.2%, Menin-MLL FL inh 0.5 and gsp antag 18.7%.
For CCS(=O)(=O)N1Cc2ccccc2CC1C(=O)Nc1cc(S(C)(=O)=O)ccc1Cl (stereo not given) the results were gsp ag 15.3%, TRPV1 PAM 0.7, CtBP-E1A inh 2.4, Sfp inh 10.4%, ClpP mod 0.5% and gsp antag 6.6%.
`O=C1NCCN(CC2CCN(CCc3ccccc3)CC2)C1=O` gave gsp ag -14.6%, CtBP-E1A inh -5.1 and ClpP mod -5.5%.
CC(C)=CC1C(C(=O)NCCOc2ccccc2)C1(C)C (stereo not given) was read as gsp ag 15.4%[15.4 µM], TRPV1 PAM -15.9, CtBP-E1A inh 4.7, Sfp inh 35.6%[activator], ClpP mod -0.7%, Menin-MLL FL inh 0.5 and gsp antag 1.3%.
`Cc1ccc(S(=O)(=O)NCC2CCC(C(=O)NCCCN3CCC(C)CC3)CC2)cc1` (stereo not given) gave gsp ag -63.6%[inhibitor], CtBP-E1A inh 0.3 and ClpP mod 1.0%.
For CC(NS(=O)(=O)c1cn(C)c(=O)n(C)c1=O)c1ccccc1 (stereo not given) the results were gsp ag -77.8%[inhibitor], TRPV1 PAM 0.5, CtBP-E1A inh -0.6, Sfp inh 30.1%[activator], ClpP mod -0.7% and gsp antag 8.3%.
CCCN1CCN(C(=O)C2CCN(S(=O)(=O)c3ccc4c(c3)oc(=O)n4C)CC2)CC1 was read as gsp ag inconclusive, TRPV1 PAM -5.9, CtBP-E1A inh 1.2, Sfp inh 10.8%, ClpP mod 1.9%, Menin-MLL FL inh 2.7 and gsp antag 5.2%.
Cc1cc(C)n(CC(=O)NNC(=O)COc2ccc(Br)cc2F)n1 was read as gsp ag 2.5%, CtBP-E1A inh -1.7, ClpP mod 1.5% and gsp antag 12.1%.
For CCOC(=O)NC1(C(F)(F)F)C(=O)NC(C)=C1C#N (stereo not given) the results were gsp ag 4.2%, TRPV1 PAM inconclusive, CtBP-E1A inh 2.2, Sfp inh 13.2%, ClpP mod -0.9%, Menin-MLL FL inh -0.8 and gsp antag 4.3%.
Screening CCCC(=O)Nc1ccc(NC(=O)c2ccccc2)nc1 returned gsp ag -4.6%[15.4 µM], TRPV1 PAM 3.0, CtBP-E1A inh -9.1, Sfp inh 12.1%, Menin-MLL FL inh 4.4 and gsp antag 3.2%.
`CC(=O)Nc1ccc(S(=O)(=O)NCCC(=O)NCCCc2ccccc2)cc1` gave gsp ag -30.4%[inhibitor], TRPV1 PAM 7.6, CtBP-E1A inh 0.8, ClpP mod 1.7% and gsp antag -4.8%.
COCCN(C(=O)c1cc(-c2ccccc2Cl)nc2ccccc12)c1c(N)n(CC(C)C)c(=O)[nH]c1=O was read as gsp ag -1.2%, CtBP-E1A inh -19.8, ClpP mod -3.3% and gsp antag 9.0%.
Screening COC(=O)c1cc(NS(=O)(=O)c2ccc(N3CCCCC3)c([N+](=O)[O-])c2)cc(C(=O)OC)c1 returned gsp ag -52.2%[inhibitor], TRPV1 PAM -9.0, CtBP-E1A inh -17.1, Sfp inh 8.0%, ClpP mod 1.0%, Menin-MLL FL inh 7.3 and gsp antag -11.3%.
For O=C(COC(=O)c1ccc(=O)[nH]c1)Nc1cccc(S(=O)(=O)N2CCOCC2)c1 the results were gsp ag -2.5%, TRPV1 PAM 9.8, CtBP-E1A inh -7.2, Sfp inh 10.3%, ClpP mod -1.4%, Menin-MLL FL inh 8.2 and gsp antag 11.3%.
For CCS(=O)(=O)N1CCN(Cc2ccncc2)CC1 the results were gsp ag -7.8%, TRPV1 PAM 2.9, CtBP-E1A inh 10.8, Sfp inh -27.5%, ClpP mod -0.1%, Menin-MLL FL inh -0.5 and gsp antag 3.1%.
CCOC(=O)c1c(NC(=O)C2C3CCC(O3)C2C(=O)O)sc2c1CCC(CC)C2 (stereo not given) was read as gsp ag 6.0%, TRPV1 PAM -0.9, CtBP-E1A inh -0.4, Sfp inh 3.1%, Menin-MLL FL inh -0.6 and gsp antag -21.9%.
Cc1ccc(C2(C)NC(=O)N(CC(=O)Nc3ccccc3N3CCCC3)C2=O)cc1 (stereo not given) was read as gsp ag 7.6%[15.4 µM], TRPV1 PAM 14.1, CtBP-E1A inh -9.3 and gsp antag -0.8%.
`CC1CCCC(NC(=O)CN2CCN(S(=O)(=O)c3cccs3)CC2)C1C` (stereo not given) gave gsp ag -1.3%, TRPV1 PAM -20.3, CtBP-E1A inh 6.9, ClpP mod 0.2% and gsp antag 3.2%.
For CC(=O)c1c(C)[nH]c(C(=O)Nc2nc(-c3ccc(Cl)cc3)cs2)c1C the results were gsp ag -14.6%, TRPV1 PAM -0.2, CtBP-E1A inh 12.7, Sfp inh -4.4%, ClpP mod -5.4%, Menin-MLL FL inh 0.4 and gsp antag inconclusive.
`O=C(C(=O)N(Cc1ccccc1)Cc1ccccc1)c1c(-c2ccccc2)[nH]c2ccccc12` gave CtBP-E1A inh -9.6, ClpP mod -2.7% and gsp antag -29.9%.
`COc1ccc(NS(=O)(=O)c2cc(NC(=O)/C=C/c3ccccc3OC)ccc2N2CCCCC2)cc1` gave gsp ag inconclusive, TRPV1 PAM 7.4, CtBP-E1A inh 19.5, Sfp inh 10.4%, ClpP mod -14.5%, Menin-MLL FL inh 7.1 and gsp antag 4.5%.
